Compound activity (PubChem)
MT1-MMP act inh – blocks activation of human MT1-MMP; HT1080 RFP-PRO-GFP cells, GFP/RFP ratio fluorescence, overnight; percent of plate control window, DMSO zero; GFP/RFP ratio change, % at 20 µM; 0.061% of 360,000 active; AID 651647;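 active = GFP/RFP ratio change of at least 30% with cell ATP level not reduced by more than half and red fluorescence within 50% of control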; also: strong numbers were not always called active
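Assay system: RFP-PRO-GFP reporter HT1080 cells; read-out basis: GFP/RFP fluorescence ratio; benchmarks: DMSO wells and RFP-L50D-GFP cells; doses: 20 µM single dose, 1% DMSO; schedule: overnight cell settling, then overnight compound exposure, 37 °C, 5% CO2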
Yeast UUG start – yeast start codon fidelity modulation | S. cerevisiae UUG-firefly luciferase reporter, luminescence/redox ratio | activity score, % at 18.7 µM | 0.13% of 350,000 active | AID 602363;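 active = replicate mean at a twofold rise or more, about +100% in these data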;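 also: firefly luciferase made from a UUG start codon reports start codon fidelity; reporter light over untreated wells divided by growth signal over untreated wells; some hits fall short of that in this replicate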
PABP FP inh – PABP-poly(A) binding inhibition; P11940; inhibition, % at 35 µM; AID 2014; PABP-poly(A) RNA binding, fluorescence polarization; 1% of 290,000 active;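 active = 50% or more with normal probe brightness, or confirmed in later tests; about a fifth of its hits are not listed in these tables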;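 also: calls also rest on retests at 20 µM and on dose response follow-up; controls were probe without protein and protein plus probe with vehicle; some compounds called inactive have numbers as strong as hits; many hits fall short of the cut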
Target sequence (P11940 whole entry, looked up): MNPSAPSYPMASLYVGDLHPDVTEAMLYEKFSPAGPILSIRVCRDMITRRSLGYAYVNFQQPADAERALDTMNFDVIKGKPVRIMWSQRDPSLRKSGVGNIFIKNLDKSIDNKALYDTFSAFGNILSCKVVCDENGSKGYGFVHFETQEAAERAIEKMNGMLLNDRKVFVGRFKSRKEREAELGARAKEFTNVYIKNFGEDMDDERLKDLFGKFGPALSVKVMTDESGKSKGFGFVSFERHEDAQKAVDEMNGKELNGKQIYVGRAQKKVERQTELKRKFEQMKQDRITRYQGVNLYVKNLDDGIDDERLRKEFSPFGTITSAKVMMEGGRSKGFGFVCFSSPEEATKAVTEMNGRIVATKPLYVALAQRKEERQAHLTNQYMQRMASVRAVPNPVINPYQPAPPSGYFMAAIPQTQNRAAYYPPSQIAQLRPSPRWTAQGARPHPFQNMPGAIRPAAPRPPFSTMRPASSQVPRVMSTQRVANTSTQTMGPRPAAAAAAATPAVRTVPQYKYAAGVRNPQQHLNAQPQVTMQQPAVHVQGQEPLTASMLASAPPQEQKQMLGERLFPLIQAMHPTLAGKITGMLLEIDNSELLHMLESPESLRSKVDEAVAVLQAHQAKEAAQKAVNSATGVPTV
Rce1 inhib – blocks yeast Ras-converting enzyme; 0.27% of 290,000 active; Q03530; calls only; yeast membranes, quenched prenylated peptide cleavage fluorescence;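 active = fall in fluorescence gain of 50% or more versus controls, with final raw signal at or below 3038400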;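 also: plate controls were neutral control wells for no effect and wells lacking membranes for full effect; tested at 10 µM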
CSC inhib – blocks cancer stem cells; cancer stem cell-like cells viability, luminescence; inhibition, % at 7.5 µM; 1.1% of 300,000 active;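 active = mean at 75% or more and at least half the replicates too; tested in HMLE shEcad cells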;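 also: 0% = median of negative and 100% = median of positive control wells; the first replicate is given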
HIV Env fusion – inhibitors of HIV Env-mediated cell fusion | AID 651610 | 1.1% of 360,000 active | HeLa-JRFL Env/CEM21 cell fusion, luciferase | inhibition, % at 12.3 µM;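 active = mean replicate inhibition score of at least 50 and every replicate individually at or above 50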;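 also: 0% = plate neutral controls and 100% = maraviroc near 300 nM; one replicate is shown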
eIF4H FP inh – inhibitors of RNA binding by human eIF4H; 0.94% of 290,000 active; eIF4H fluorescence polarization binding assay; inhibition, % at 35 µM; AID 2012;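 active = 50% or more with normal probe brightness, or confirmed in later tests; about a fifth of its hits are not listed in these tables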;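 also: calls also rest on retests at 20 µM and on dose response follow-up; 0% = protein and probe with vehicle and 100% = probe without protein; strong numbers were not always called active; many hits fall short of the cut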
MT1-MMP act inh RFP – recorded beside MT1-MMP act inh, whose call it bears; RFP signal change, %; measured here: RFP expression control read;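 0 = vehicle wells; hits needed this value within 50% of zero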
Starred values were filed as active, the others as inactive; i = inactive; · = not tested or not shown.

SMILES | MT1-MMP act inh | MT1-MMP act inh RFP | Yeast UUG start | PABP FP inh | Rce1 inhib | CSC inhib | HIV Env fusion | eIF4H FP inh
CCC(NC(=O)COc1ccc([N+](=O)[O-])cc1)c1ccccc1 (stereo unspecified) | · | · | · | -2 | i | 2 | · | -9
COc1ccc(-c2noc(-c3ccc(C)cc3)n2)cc1 | -1 | -7 | · | -8 | i | 0 | · | 1
CCCNC(=O)c1nc2ncc(Br)cn2n1 | -3 | 1 | -1 | -1 | i | -8 | -162 | -13
O=C(COC(=O)CC12CC3CC(CC(C3)C1)C2)Nc1cccnc1Cl | 5 | 3 | · | -11 | i | 24 | 24 | -11
CCOP(=O)(OCC)c1nc(-c2cccc([N+](=O)[O-])c2)oc1N1CCCCC1 | 1 | -1 | · | -6 | i | -2 | 15 | 3
Clc1ccc(C2=C3CCCCn4c(-c5ccccc5)c[n+](c43)C2)cc1 | -13 | 0 | -12 | 29 | i | 15 | 25 | -2
COc1ccc(NC(=S)Nc2ccc(S(N)(=O)=O)cc2)c(OC)c1 | 2 | 8 | · | 0 | i | -5 | 12 | -11
CN1CCN(c2ccccc2/C=N/NC(=O)c2cccnc2)CC1 | 2 | -2 | · | -4 | · | -6 | 26 | 0
Cc1ccc(C(=O)NC2CCN(CC(=O)NCc3cccs3)CC2)cc1 | -10 | -3 | · | 10 | i | -3 | 6 | 2
O=C(Nc1ccc(S(=O)(=O)Nc2ncccn2)cc1)c1ccccc1 | -1 | 2 | 3 | -2 | i | -4 | 0 | -5
CN1CCCCc2c1nc1ccccc1c2N (tested in a mixture with another compound) | 2 | 5 | -8 | 22 | i | -3 | -107 | -5
CCOc1cc(CN2CCN(c3cccc(C(F)(F)F)c3)CC2)ccc1OC | 0 | -6 | 1 | 17 | i | -7 | · | -1
Cc1nn(C)cc1/C=N/O | 3 | 3 | -23 | 0 | i | · | -1 | -7
CCCCC(=O)Nc1ccccc1N1CCN(c2ccccc2)CC1 | -1 | 3 | · | -12 | i | 1 | -10 | -2
NC(=O)c1ncc(C(F)(F)F)cc1Oc1ccc(C(F)(F)F)cc1 | 5 | 3 | · | -4 | i | -3 | · | -8

Record cards (already shown):
Profile of NC(=O)c1ncc(C(F)(F)F)cc1Oc1ccc(C(F)(F)F)cc1 : MT1-MMP act inh = 5; MT1-MMP act inh RFP = 3; Yeast UUG start = ·; PABP FP inh = -4; Rce1 inhib = i; CSC inhib = -3; HIV Env fusion = ·; eIF4H FP inh = -8
Profile of CCOP(=O)(OCC)c1nc(-c2cccc([N+](=O)[O-])c2)oc1N1CCCCC1 : MT1-MMP act inh = 1; MT1-MMP act inh RFP = -1; Yeast UUG start = ·; PABP FP inh = -6; Rce1 inhib = i; CSC inhib = -2; HIV Env fusion = 15; eIF4H FP inh = 3
Profile of CN1CCN(c2ccccc2/C=N/NC(=O)c2cccnc2)CC1 : MT1-MMP act inh = 2; MT1-MMP act inh RFP = -2; Yeast UUG start = ·; PABP FP inh = -4; Rce1 inhib = ·; CSC inhib = -6; HIV Env fusion = 26; eIF4H FP inh = 0

The list goes on:
SMILES | MT1-MMP act inh | MT1-MMP act inh RFP | Yeast UUG start | PABP FP inh | Rce1 inhib | CSC inhib | HIV Env fusion | eIF4H FP inh
Cc1nn(C)cc1/C=N/NC(=O)c1ccc2c(c1)OCO2 | -1 | -1 | -7 | -11 | i | 0 | -5 | -2
O=C(OCc1ccccc1Cl)c1cc([N+](=O)[O-])ccc1N1CCOCC1 | -2 | -2 | 8 | 1 | i | -8 | -8 | -5
CCOc1ccc(S(=O)(=O)NCc2ccc(Cl)cc2)c2cccnc12 | 4 | 5 | · | 9 | i | 4 | 0 | 4
COc1ccc(OC)c(S(=O)(=O)NC(C)CCc2ccccc2)c1 (stereo unspecified) | -1 | -2 | 4 | 6 | i | -21 | 14 | -6
Cc1ccc(S(=O)(=O)Nc2cc(C(C(=O)OC(C)C)C(=O)C(F)(F)F)c(O)c3ccccc23)c(C)c1 (stereo unspecified) | -22 | 4 | 2 | 34 | i | 24 | 20 | -10
O=C(COC(=O)c1ccccc1Nc1ccccc1)NCc1ccccc1 | 3 | -1 | -1 | -10 | i | 2 | · | -10
CC(=O)N1CC(C)Oc2ccc(S(=O)(=O)Nc3ccc(Cl)cn3)cc21 (stereo unspecified) | 2 | 4 | 4 | · | i | -11 | -6 | ·
CCOC(=O)c1c(-c2ccc(C)cc2)csc1NC1=NS(=O)(=O)c2ccccc21 | 3 | 2 | · | 4 | i | -9 | 0 | -4
COC(=O)c1cc(S(=O)(=O)NCc2ccc(Br)cc2)c[nH]1 | 1 | 3 | -24 | -8 | i | 13 | -7 | -4
O=C(NC1CCCC1)c1cccc(Cl)c1 | 2 | 2 | · | 18 | i | -1 | -2 | -2
Cc1ccc(-c2nc3ccccc3c(=O)n2CCN2CCOCC2)cc1 | -5 | -2 | -15 | -9 | i | 9 | -21 | -7
CCCNCc1cc(OC)c(OCCC)cc1Cl | 7 | -2 | -7 | 4 | i | -13 | -55 | -1
Cc1cc(=O)[nH]c(N/N=C/c2c(O)n(-c3ccccc3)c(=O)c3ccccc23)n1 | -39 | -4 | -24 | 3 | i | -9 | -4 | 3
Cc1cc(C)c(OCCCCn2cnc3ccccc3c2=O)c(C)c1 | 3 | 0 | 11 | -1 | i | 0 | 17 | 1
COc1ccc(/C=C/C(=O)O)cc1S(=O)(=O)Nc1ccc2c(c1)OCO2 | 0 | 2 | -8 | 10 | i | -7 | 9 | 0

No new results follow: entries from further up.
SMILES | MT1-MMP act inh | MT1-MMP act inh RFP | Yeast UUG start | PABP FP inh | Rce1 inhib | CSC inhib | HIV Env fusion | eIF4H FP inh
Cc1cc(C)c(OCCCCn2cnc3ccccc3c2=O)c(C)c1 | 3 | 0 | 11 | -1 | i | 0 | 17 | 1
COc1ccc(/C=C/C(=O)O)cc1S(=O)(=O)Nc1ccc2c(c1)OCO2 | 0 | 2 | -8 | 10 | i | -7 | 9 | 0

Carrying on:
SMILES | MT1-MMP act inh | MT1-MMP act inh RFP | Yeast UUG start | PABP FP inh | Rce1 inhib | CSC inhib | HIV Env fusion | eIF4H FP inh
Nc1nc2n(n1)C(c1cccc(Br)c1)CC(c1ccc(F)cc1)N2 (stereo unspecified) | -4 | -5 | -21 | -11 | i | · | -22 | 4
CCOC(=O)N(C)OC(=O)Nc1ccc(Cl)c(Cl)c1 | 1 | 1 | -8 | 0 | · | 6 | · | -2
C=C(C)CNC(=S)N/N=C/c1ccc([N+](=O)[O-])cc1 | 4 | 1 | · | -15 | i | 3 | -2 | -2
COc1cccc(CNc2ccc([N+](=O)[O-])cc2Cl)c1O | 0 | -11 | · | 2 | i | -11 | -24 | -4
Cc1cc(NC(=O)c2c(Cl)cccc2Cl)no1 | -3 | -2 | · | 4 | i | · | 14 | 2
CCOc1ccc(C(=O)c2cc([N+](=O)[O-])ccc2N2CCOCC2)cc1 | 12 | -3 | · | -4 | i | 58 | -339 | 6
COc1ccc2c(c1)C(=C(C#N)C#N)C(=O)N2CCc1ccccc1 | -6 | 7 | -2 | 9 | i | 12 | 8 | 10
CCC(C)(C)NC(=O)CN(Cc1cccs1)C(=O)CNS(=O)(=O)c1ccc(F)cc1 | -1 | 6 | · | 11 | i | -9 | -16 | 2
COc1ccccc1S(=O)(=O)Cc1ccc(C(=O)NCC2CCCO2)o1 (stereo unspecified) | 2 | 4 | -21 | 2 | i | 10 | 1 | 1
CN(C)S(=O)(=O)c1ccc2c(c1)nc(CCC(=O)Nc1ccc3c(c1)OCO3)n2C | 1 | 2 | · | 2 | i | -6 | -6 | 20
CO/N=C/c1ccc(N2CCN(C(=O)c3ccc(F)cc3)CC2)c([N+](=O)[O-])c1 | 8 | -15 | -3 | 9 | i | -14 | -11 | 1
CNC(=O)NC(=O)C(C)OC(=O)CCCc1nc2ccccc2s1 (stereo unspecified) | -1 | -5 | -14 | 4 | i | -15 | -4 | 1
COc1cc(NC(=O)CNC(c2ccccc2)c2ccccc2)cc(OC)c1OC | 1 | -6 | 4 | -8 | i | -1 | -8 | -4
C/C(Cc1ccccc1)=N\NC(=O)CNC(=O)c1ccc(F)cc1 | -4 | 1 | -16 | -6 | i | -15 | 7 | -10
COc1ccccc1CN(Cc1nc2ccccc2c(=O)[nH]1)C(=O)Nc1cccc(C)c1 | 1 | 2 | -11 | -3 | i | 6 | -32 | 8
O=C(NCc1ccc(Cl)cc1)c1ccccc1CCc1ccccc1 | 5 | -6 | -2 | 4 | i | 11 | -4 | -6
C=CCn1c(-c2ccc3ncccc3c2)n[nH]c1=S | 5 | -2 | -2 | 12 | i | -6 | 3 | -1
COc1ccc(C(=O)Nc2cccc(-c3csc(C)n3)c2)cc1S(=O)(=O)N1CCCC1 | 1 | -4 | -14 | · | · | 11 | i | ·
COc1ccc(C(=O)NCCc2ccc(F)cc2)cc1OC | 1 | 3 | -2 | -9 | i | -14 | 0 | -6
O=C(O)CC1CCS(=O)(=O)C1 (stereo unspecified) | -3 | 0 | -8 | -5 | i | -20 | 25 | 3
Cc1noc(C)c1C(=O)N1CC(C)OC(C)C1 (stereo unspecified) | 0 | 3 | 0 | -6 | i | 2 | · | -6
CCCOC(=O)C1=C(C)NC2=C(C(=O)CC(C)(C)C2)C1c1ccc(N(C)C)cc1 (stereo unspecified) | -5 | -8 | -1 | 5 | i | -9 | · | -1
Cc1cccc(N2CCN(C(=O)C3CCN(S(=O)(=O)c4cccc5nsnc45)CC3)CC2C)c1 (stereo unspecified) | 2 | -16 | -25 | -7 | i | 0 | 19 | -6
Cc1cc2oc3c(c(=O)c2cc1C)C(c1ccc(F)cc1)N(CCCN1CCOCC1)C3=O (stereo unspecified) | -3 | 4 | -3 | 5 | i | 0 | -17 | -6
Cc1ccc(C(C)C)c(OCCN2C(=O)NC(C)(C)C2=O)c1 | -4 | 1 | 5 | -5 | i | · | -73 | -19
O=C(Cc1cccs1)Nc1ccccc1NC(=O)Cc1cccs1 | 4 | -1 | 4 | 3 | i | · | · | 10
Cc1ccccc1OCCc1c(C)[nH]c(=S)[nH]c1=O | 2 | -16 | · | 4 | i | -2 | -31 | 3
CCOc1ccc(NC(=O)CC2C(=O)N(c3ccccc3)C(=O)N2CCc2cccs2)cc1 (stereo unspecified) | 13 | -5 | -4 | -2 | i | 7 | 10 | -6
CCc1nnc(NC(=O)CSc2nnc(CSc3nc(C)cc(C)n3)o2)s1 | -2 | 1 | -24 | -13 | i | -1 | · | -3
Cn1c(SCC(=O)N2CCOCC2)nnc1-c1ccncc1 | 0 | -2 | -13 | 9 | i | -6 | 12 | -9
O=C(NCc1ccc2c(c1)OCO2)Nc1cccc2ccccc12 | 2 | 0 | -9 | 0 | i | -3 | 3 | 6
CCN(C[C@H]1N[C@@](C)(C(=O)OC)[C@H]2C(=O)N(Cc3ccccc3)C(=O)[C@@H]12)C(=O)Nc1ccc(Cl)cc1 | -2 | -1 | 0 | · | · | · | 64* | ·
O=C(CN1CCN(c2ccccn2)CC1)NCCc1ccccc1 | -3 | 1 | -16 | -1 | i | -15 | · | 2
CON(C)C(=O)CC(CNC(=O)OC(C)(C)C)c1ccc(Cl)cc1 (stereo unspecified) | 0 | -2 | 5 | · | · | -15 | 22 | ·
COc1ccc(C(=O)C2CCCN(C(=O)c3ccc(C(C)=O)s3)C2)c(C)c1 (stereo unspecified) | -2 | -4 | 11 | 2 | i | · | -7 | 7
CC(C)COC(=O)n1c(=O)oc2cc(S(=O)(=O)N3CCCCC3)ccc21 | 6 | -5 | -23 | -16 | i | -2 | 34 | 0
COc1ccc(C(=O)N2CCC(n3nccc3NC(=O)C3CC3)CC2)c(OC)c1OC | 0 | 3 | -7 | 6 | i | 9 | -4 | -12
C[C@H](NC(=O)c1ncn2c1C(=O)NC[C@H]2C)C(=O)OC(C)(C)C | 2 | 4 | -24 | · | · | · | 0 | ·
O=C(Nc1ccc(N2CCOCC2)cc1)C1(c2ccc(Cl)cc2)CCC1 | 0 | -1 | · | 2 | i | -11 | -11 | -1
CCc1nc2c(OCC(=O)N(C)C)cccn2c1N(C=O)Cc1ccc(OC)cc1 | -3 | -1 | -19 | · | · | · | -1 | ·
CCOc1ccc(C2c3[nH]c4ccccc4c3CCN2CCCn2cccn2)cc1 (stereo unspecified) | -2 | 0 | · | -4 | i | -7 | -7 | -1
